High-throughput results deposited in PubChem by National Center for Advancing Translational Sciences (NCATS).
MARV entry inh – qHTS for Inhibitors of binding or entry into cells for Marburg Virus. 18,000 compounds, 6.5% hits. Marburg virus pseudotype entry/binding inhibition, cell-based; control for the full effect not named in the record; many of its hits are not listed in these tables. Potency, µM (highest dose often 49.2 µM), for inactives: at the top dose activity change, negative = inhibition, most hits filed as inhibitors; active means well fitted inhibition curve with a large enough effect; inconclusive means small, poorly fitted or top-dose-only effect; inactive means no such curve, though single readings can be large or run the other way; tested in HEK293 cells; also: luciferase read-out
Lassa entry – qHTS for Inhibitors of binding or entry into cells for Lassa Virus. Lassa virus pseudotyped entry inhibition, cell-based qHTS; control for the full effect not named in the record; many of its hits are not listed in these tables. Potency, µM (series often up to 49.2 µM), inactives show at the highest dose activity change, negative = inhibition, most hits filed as inhibitors. 18,000 compounds, 4.1% hits. AID 720533, 2013; active = well fitted inhibition curve with a large enough effect; inconclusive = small, poorly fitted or top-dose-only effect; inactive = no such curve, though single readings can be large or run the other way; tested in HEK293 cells; also: luciferase read-out
* hit, by the source's call; ? = inconclusive; · = no result given; & = joins results of further samples; [ ] = another dose, or the depositor's remark. % is scaled to controls: 0 for no effect and ±100 for the full control effect; potency is read from the fitted curve at half-maximal effect. This is a subset; the hit share may differ from the screen's.

Screens in order – MARV entry inh	Lassa entry
> CC(C)NC(=O)c1cn(C2CCC(NC(=O)C(C)(C)C)CC2)nn1 (configuration not stated)
 : -20%	5%
> Clc1ccccc1-c1cc(NCc2cccnc2)ncn1
 : 13%	1%
> COc1ccc(-c2cc(=O)c3ccc(O)cc3o2)cc1
 : -13%&1%	-13%&-1%
> COC/C=C/C1=CC2=CC(=O)C(C)(OC(=O)c3ccco3)C(=O)C2=CO1 (configuration not stated)
 : 9%	-13%
> CN(C)c1ccc(/C=C2\C(=O)Nc3ccccc32)c2ccccc12
 : ?	?
> Cc1ccc(/C=N/n2c(-c3ccccc3)csc2=S)cc1
 : 3%	-15%
> COc1cc2c(cc1OC)-c1c(O)c(OC)cc3c1[C@H](C2)N(C)CC3
 : 0%	-8%
> CC(=O)Oc1ccc(/C=C/C(=O)CC2OC(Oc3cc(OC(C)=O)c4c(c3)O[C@@H](c3ccc(OC(C)=O)cc3)CC4=O)C(OC(C)=O)C(OC(C)=O)C2OC(C)=O)cc1 (some centres not stated)
 : -39%	?
> COC(=O)c1ccc(-c2cccc3c2OC(CNC(=O)/C=C/c2ccc(OC)c(OC)c2)C3)nc1 (configuration not stated)
 : 5%	-17%
> C=C(NC(=O)C(=C)NC(=O)c1csc(C2=N[C@@H]3c4csc(n4)[C@H]4NC(=O)c5csc(n5)[C@H]([C@](C)(O)[C@@H](C)O)NC(=O)[C@H]5CSC(=N5)C(=CC)NC(=O)C([C@@H](C)O)NC(=O)c5csc(n5)[C@]3(CC2)NC(=O)[C@H](C)NC(=O)C(=C)NC(=O)[C@H](C)NC(=O)C([C@@H](C)CC)NC2C=Cc3c([C@H](C)O)cc(nc3C2O)C(=O)O[C@@H]4C)n1)C(N)=O (some centres not stated)
 : ?	?
> CC(C)C[C@@H](CO)NS(=O)(=O)c1cc(Cl)ccc1F
 : 14%	41%[activator]
> CC(C)[C@H](CO)Nc1nc(Nc2ccc(C(=O)O)c(Cl)c2)c2ncn(C(C)C)c2n1
 : 3%	0%
> Cc1c(C(=O)N2CC3CCC2C3)sc2ncnc(NCCc3ccccn3)c12 (configuration not stated)
 : -8%	?
> COc1ccccc1N1CCN(CCCCN2C(=O)c3ccccc3C2=O)CC1
 : -18%&5%	11%&-2%
> CCCCC/C=C\C/C=C\C/C=C\C/C=C\CCCC(=O)O[C@@H](CO)COC(=O)CCCCCCCCCCCCCCCCC
 : 13%&-7%	-1%&-8%

Reprinted from the part before: 2 compounds; new compounds follow.
Screens in order – MARV entry inh	Lassa entry
> COc1ccccc1N1CCN(CCCCN2C(=O)c3ccccc3C2=O)CC1
 : -18%&5%	11%&-2%
> CCCCC/C=C\C/C=C\C/C=C\C/C=C\CCCC(=O)O[C@@H](CO)COC(=O)CCCCCCCCCCCCCCCCC
 : 13%&-7%	-1%&-8%
> C[C@]12CCC(=O)C=C1CC[C@@H]1[C@@H]2[C@@H](O)C[C@@]2(C)[C@H]1CC[C@]2(O)C(=O)COP(=O)(O)O
 : 3%	-5%
> COc1ccc(C(=O)NCC2Cc3cc(F)cc(-c4cncnc4)c3O2)cc1 (configuration not stated)
 : 12%	4%
> COc1ccc(-c2ccc(-c3cc(=O)oc4cc(OC)c(OC)c(OC)c34)cc2)cc1
 : 6%	3%
> Cc1cccc2c3c(ccc12)C1=C(C(=O)C3=O)C(C)CO1 (configuration not stated)
 : ?	-13%
> CCOC(=O)CCN1C(=O)[C@@H]2[C@H]3[C@H](O)[C@H](O)CC(=NO[C@@H]4O[C@H](COC(C)=O)[C@@H](OC(C)=O)[C@H](OC(C)=O)[C@@H]4OC(C)=O)[C@H]3CC[C@H]2C1=O
 : -6%[8.59 µM]	-16%[8.59 µM]
> Cc1c2oc3c(C)ccc(C(=O)N[C@@H]4C(=O)N[C@@H](C(C)C)C(=O)N5CCC[C@@H]5C(=O)N(C)CC(=O)N(C)[C@@H](C(C)C)C(=O)O[C@H]4C)c3nc-2c(C(=O)N[C@@H]2C(=O)N[C@@H](C(C)C)C(=O)N3CCC[C@@H]3C(=O)N(C)CC(=O)N(C)[C@@H](C(C)C)C(=O)O[C@H]2C)c(N)c1=O
 : ?	?
> CC1C(=O)N(Cc2cn(Cc3ccco3)nn2)CCS(=O)(=O)N1Cc1ccc(-c2ccccc2Cl)cc1 (configuration not stated)
 : -23%	-8%
> Cc1cc(N)c2cc(NC(=O)Nc3ccc4nc(C)cc(N)c4c3)ccc2n1
 : ?	?
> Cc1cc(C)n(CC(=O)N2CCC(n3c(C(C)C)nc4cccnc43)CC2)n1
 : -3%	-5%
> C[C@H]1Cc2c(-c3ccccc3)nc3c(c2CO1)CN(C(=O)NCc1ccco1)CC3
 : 9%[8.59 µM]	-25%[8.59 µM]
> CC1=NCCc2c1[nH]c1cc(O)ccc21
 : 6%	-7%
> Cc1cc(C)cc(CO[C@H]2C=C[C@@H](c3ccccc3)O[C@H]2CO)c1
 : -24%[8.59 µM]	-11%[8.59 µM]
> COC(=O)[C@H](CC(C)C)NS(=O)(=O)c1ccc(F)cc1Br
 : 14%	25%
> CSc1nc(N)c2ncn([C@H]3O[C@H](COP(=O)(O)OP(=O)(O)OP(=O)(O)O)[C@@H](O)[C@@H]3O)c2n1
 : -4%	10%
> CCN1C(=O)NC(c2cccs2)C(C(C)=O)=C1C (configuration not stated)
 : ?	-8%[8.59 µM]
> COc1ccc2c(c1)[C@@]1(OCCC=C[C@@H]1C)C(=O)N2Cc1ccc(Br)cc1
 : 5%[8.59 µM]	-21%[8.59 µM]
> Cc1cccc(CNc2nc(-c3cccnc3)nc3ccccc23)c1
 : ?	-19%
> COc1cccc([C@@H]2Oc3ccc(Br)cc3C(=O)[C@H]2OC(=O)NC2CCCC2)c1
 : 1%	-8%
> CC(C)=CCCC(C)=CCON=C1C[C@@H](O)[C@@H](O)[C@@H]2[C@H]3C(=O)N(Cc4ccccc4)C(=O)[C@@H]3CC[C@@H]12
 : 3%[8.59 µM]	-1%[8.59 µM]
> CCCCCC(=O)/C=C/[C@H]1[C@H](O)CC(=O)[C@@H]1C/C=C\CCCC(=O)O
 : -3%	-4%
> Nc1nc(N)c(N=O)c(OCC2CCCCC2)n1
 : 11µM*	-5%
> CN(C)C(=O)COC(=O)Cc1ccc(OC(=O)c2ccc(N=C(N)N)cc2)cc1
 : 14%	-17%
> CCOc1ccccc1-c1ccc(C(=O)O)o1
 : 35%[activator][107 µM]	-2%[107 µM]
> CC1CCC(C(C)C)[C@H](OC(=O)c2ccccc2)C1 (some centres not stated)
 : -1%	0%
> Cc1ccc2c(c1)C(=O)[C@@]1(O)CCN(c3ccccc3)C1=N2
 : -24%	11%
> CC(C)C[C@@H](CC(=O)N[C@H](CC(=O)N[C@@H]1CCNC[C@H]1C(=O)N[C@H](CC(=O)N[C@@H](CCC(=O)O)CC(=O)O)Cc1c[nH]c2ccccc12)C(C)C)NC(=O)[C@@H]1CCCC[C@H]1N
 : 3%	4%
> COC(=O)C1CCN(Cc2ccc3c(c2)CN(C(=O)C2Cc4ccccc4O2)CCO3)CC1 (configuration not stated)
 : ?	3%
> COc1ccc(-c2cnc(-c3cccnc3)o2)cc1
 : 31%[activator]	-14%
> O=c1c(-c2ccc(O)cc2)coc2cc(O[C@@H]3O[C@H](CO)[C@@H](O)[C@H](O)[C@H]3O)cc(O)c12
 : 7%	-26%
> COc1ccc(-c2nc3c(c4c2C[C@H](c2ccccc2)OC4)CN(S(=O)(=O)c2ccc(C)cc2)CC3)c(C)c1
 : ?	·

Full records as entered above. Screens in order: MARV entry inh	Lassa entry
CN(C)C(=O)COC(=O)Cc1ccc(OC(=O)c2ccc(N=C(N)N)cc2)cc1 in the list: 14%	-17%
Nc1nc(N)c(N=O)c(OCC2CCCCC2)n1 in the list: 11µM*	-5%
COc1ccc2c(c1)[C@@]1(OCCC=C[C@@H]1C)C(=O)N2Cc1ccc(Br)cc1 in the list: 5%[8.59 µM]	-21%[8.59 µM]

Next section:
Screens in order – MARV entry inh	Lassa entry
> COc1ccc(-c2coc3cc(O)ccc3c2=O)c(OC)c1
 : 11%	-13%
> CC1C(=O)N(Cc2cn(CC3CCCCC3)nn2)CCS(=O)(=O)N1Cc1ccc(-c2ccncc2)cc1 (configuration not stated)
 : -23%	-27%
> COc1ccc2c(=O)ccoc2c1
 : 17%	2%
> CC(C)=CCCN1CCC(NC(=O)C(O)(c2ccccc2)C2CCCC2)CC1 (configuration not stated)
 : ?	-8%
> CCCCC(CC)COC(=O)/C=C/c1ccc(OC)cc1 (configuration not stated)
 : -7%	-14%
> C=CCOC(=O)C(C(C)=O)[C@@H](NC(=O)OC)c1ccco1 (some centres not stated)
 : 19%[8.59 µM]	16%[8.59 µM]
> O=C1C[C@@H](c2ccc(O)c(O)c2)Oc2cc(O[C@H]3O[C@@H](CO)[C@H](O)[C@@H](O)[C@@H]3O)cc(O)c21
 : -5%	-3%
> CCCCCCN1C[C@H](n2cc(C3CC3)nn2)[C@@H](O)C[C@H]1c1ccc(C)cc1
 : -31%	-25%
> NCC(O)CC(=O)O (configuration not stated)
 : 5%	-2%
> C=C(C)C1CC=C(C(=O)O)CC1 (configuration not stated)
 : -4%	-4%
> Cc1ccc2c(CN(Cc3ccccc3)Cc3ccccc3)cc(=O)oc2c1
 : ?	10%
> COCCC1CCCCN1Cc1nc(N2CCCCC2)c2cc(OC)c(OC)cc2n1 (configuration not stated)
 : -15%	-13%
> OCCCNCc1cc2ccc(F)cc2nc1N1CCN(c2cccc(Cl)c2)CC1
 : 10µM*	?
> C=CCOC(=O)N[C@H](c1ccccc1)C(C(C)=O)C(C)=O
 : ?	7%
> Nc1ncnc2c1c(I)cn2C1OC(CO)C(O)C1O (configuration not stated)
 : ?	?

Grouped by structure: the entries above with a thiophene ring, fused or not
Screens in order – MARV entry inh	Lassa entry
> Cc1c(C(=O)N2CC3CCC2C3)sc2ncnc(NCCc3ccccn3)c12 (configuration not stated)
 : -8%	?
> CCN1C(=O)NC(c2cccs2)C(C(C)=O)=C1C (configuration not stated)
 : ?	-8%[8.59 µM]

Further entries follow:
Screens in order – MARV entry inh	Lassa entry
> C=CC[C@H]1C[C@H]2CC=CP(=O)(O2)O1
 : -35%	-11%
> COc1cccc([C@@H]2Oc3ccc(Br)cc3C[C@H]2OC(=O)NS(=O)(=O)c2ccc(F)cc2)c1
 : 18%	-12%
> O=S1(=O)C[C@@H](N2CCCC2)[C@H](COCc2ccccc2)N1
 : ?	17%
> C=CCc1cc(OC)c(O)c(C(=O)NCCO)c1
 : 4%	-9%
> CC(C(O)c1ccccc1)N(C)CCOC(c1ccccc1)c1ccccc1 (configuration not stated)
 : 8.9µM*	14µM*
> CCn1c(-c2ccccc2F)nc2cc(NC(C)=O)cc(C(=O)N3CCC[C@H]3C(=O)OC)c21
 : 4%	1%
> Cc1ccccc1-c1cc2c(c(OC3CCOC3)c1)OCCN(C(=O)Cn1cccn1)C2 (configuration not stated)
 : 7%	-28%
> COc1ccccc1-c1ccnc(-n2ncc(C(=O)NCc3cccc(C)n3)c2C)n1
 : 1%	-7%
> COCCN1C(=NCC(C)C)NC(c2ccccc2)C(C(=O)OC)=C1C (configuration not stated)
 : 29%[8.59 µM]	·
> O=C(NCc1ccncc1)c1cnn(-c2nccc(-c3cc4ccccc4o3)n2)c1C1CC1
 : -22%	-17%
> O=C1NC(=O)C(Cc2ccccc2)(C2CCN(Cc3cccn3-c3cccnc3)CC2)N1 (configuration not stated)
 : ?	-3%
> Oc1ccc2c(c1)OCC1c3cc4c(cc3OC21)OCO4 (configuration not stated)
 : ?	-5%
> CN(Cc1ccccc1F)c1cc2c(c3c1ccn3C)C1CCC2O1 (configuration not stated)
 : 19%	13%
> CC[C@H](C)[C@H](NC(=O)[C@H](CCCN=C(N)N)NC(=O)[C@H](CCCN=C(N)N)NC(=O)[C@H](CC(C)C)NC(=O)[C@H](Cc1ccccc1)NC(=O)CNC(=O)CNC(=O)[C@@H](N)Cc1ccc(O)cc1)C(=O)N[C@@H](CCCN=C(N)N)C(=O)N1CCC[C@H]1C(=O)N[C@@H](CCCCN)C(=O)N[C@@H](CC(C)C)C(=O)N[C@@H](CCCCN)C(=O)O
 : 12%&1%	1%&11%
> Cc1ccc(CNc2ncnc3sc(C(=O)N4CCCCC4c4cccnc4)c(C)c23)o1 (configuration not stated)
 : 7%	22%
> CS(=O)(=O)CCNCc1nc(-c2ccc3ncnc(Nc4ccc(OCc5cccc(F)c5)c(Cl)c4)c3c2)cs1
 : -15%	-7%
> CC(=O)NC(CCC(=O)O)C(=O)O (configuration not stated)
 : 14%	22%
> C[C@H]1CO1
 : 1%	2%
> CC(=O)[C@]12C[C@@H]3CCCN(C(=O)N[C@@H]1c1ccccc1)[C@@H]32
 : 0%[8.59 µM]	-7%[8.59 µM]
> C#Cc1cccc(C(=O)NCc2nc(-c3ccccc3NC(C)=O)oc2C)c1
 : -9%	-10%
> COC(=O)c1c(C(=O)OC)c2c3ccccc3cc(-c3ccccc3)n2c1C(=O)OC
 : -23%[8.59 µM]	-15%[8.59 µM]
> COc1cc(OC)c2nc(-c3cc4c(c(OC)c3)OCCN(C(=O)C(C)c3n[nH]c(=O)c5ccccc35)C4)cc(C)c2c1 (configuration not stated)
 : -10%	-20%
> C=CCN1C[C@H](C)N([C@H](c2ccc(C(=O)N(CC)CC)cc2)c2cccc(O)c2)C[C@H]1C
 : ?	-22%
> CC1=C[C@@H](C)OC2(C1)C(=O)N(CC1CC1)c1cccc(Br)c12 (some centres not stated)
 : 3%[8.59 µM]	2%[8.59 µM]
